# Source: PubChem BioAssay (National Center for Advancing Translational Sciences (NCATS))
# SmPrx2 inh = blocks S. mansoni peroxiredoxin 2 enzymatic activity. S. mansoni Prx2 activity coupled to TGR/GSH (TGR is thioredoxin glutathione reductase), NADPH fluorescence loss, qHTS; some inactives read as strong as hits. Potency, µM. 65,000 compounds, 0.07% hits. AID 448; active means full or partial inhibition curve with a strong effect at the top dose; inconclusive means weaker partial or single-point curve; inactive means no accepted curve; also: series up to 57 µM; many of its hits are not listed in these tables
#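 Activity is read as the drop in NADPH fluorescence (365/450 nm), recorded every 30 sec for 8 min after H2O2 addition. Prx2 is coupled to TGR-driven NADPH oxidation through glutathione, in phosphate buffer pH 7.4.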
# LT uptake inh = blocks cellular internalization of anthrax lethal toxin | Cells, anthrax lethal toxin internalization, FRET ratio (460/530) | Potency, µM (titrated, usually from 40 µM), for the others: at the top dose activity change, negative = inhibition, hits mostly inhibitors | 70,000 compounds, 0.67% hits | AID 912; active = well fitted falling ratio curve with the 530 nm signal flat; inconclusive = other ratio curves, or a change in one channel alone; inactive = flat curves in the ratio and both channels; the % refers to the ratio; also: % is scaled to controls: 0 for no effect and ±100 for the full control effect; nearly all actives have a fitted effect of over 50% in size; tested in ME-180 cells; beta-lactamase reporter
# * marks the source's active call; other numbers are inactive results; ? = inconclusive; nt = no result given; & = joins results of further samples; [ ] = remark or other dose. Potency is read from the fitted curve at half-maximal effect.
# Order of results: SmPrx2 inh, LT uptake inh
CCC12C=C(/C=C/c3ccccc3)C(CC)(C1)C(c1ccccc1)CC2=O (configuration not stated)
→ nt, -27%[8 µM]
O=C(CCCOc1ccccc1)N1CCc2ccccc2C1
→ >57, -9%
c1ccc2c(c1)OC[C@@H](C1=NCCN1)O2
→ >57&>57&>57, -4%
NCc1ccc(C(=O)O)cc1
→ >57, -1%[8 µM]
CCOC(=O)N1CCN(C(=O)c2ccc(N3CCCC3=O)cc2)CC1
→ >57, 19%
Cc1ccc(-c2ccc(=O)n(CC(=O)NCCN3C(C)CCCC3C)n2)cc1 (configuration not stated)
→ >57, 11%
O=C(CSC1=NCCS1)N1CCCC1
→ >57, 14%
COc1ccc(CCNC(=O)c2oc3ccc(S(=O)(=O)N4CCOCC4)cc3c2C)cc1OC
→ >57, ?
COC(=O)[C@@]1(Cc2ccc(F)cc2)[C@H]2c3cc(C(=O)N4CCCC4)n(Cc4ccc(Cl)c(C(F)(F)F)c4)c3C[C@H]2CN1C(=O)c1ccccc1
→ >57, ?
CC[C@H]1C2=C3C(CC[C@H]4C(OC)OC[C@](C)([C@@H]34)N(C(=O)OC(C)(C)C)C2)C(CO)C1CO (some centres not stated)
→ >57, ?
COc1ccccc1CNC(=O)CCCNS(=O)(=O)c1cccc2nsnc12
→ >57, 13%
c1ccc(CCNc2ncnc3c2nnn3Cc2ccccc2)cc1
→ >57, ?
CCc1cc2c(N3CCCCC3)ncnc2s1
→ >57, -5%
O=C(NC1CCCCC1)C1CCN(c2cnccn2)CC1
→ >57, -2%
O=C(c1ccco1)N1CCN(Cc2cccc(F)c2)CC1
→ >57, 5%
CCOC(=O)CSc1nnc(-c2ccc(OC)cc2)n1CC
→ >57, -7%
COc1ccccc1C(=O)Nc1nnn(C)n1
→ >57, -6%
c1cncc(-c2cncnc2NCc2cccs2)c1
→ >57, -5%
CC12CCC(C(=O)NC3CCCC3)(CC1=O)C2(C)C (configuration not stated)
→ >57, 11%
COC(=O)c1cc2c(s1)-c1ccccc1OC2
→ >57, -17%
Cc1cc(C)n(-c2ccc(C(=O)Nc3ccc4c(c3)OCCO4)cc2)n1
→ >57, ?
COc1ccc(OC)c(-c2csc3nnc(SCC(=O)Nc4ccc(NC(C)=O)cc4)n23)c1
→ >57, 17%
Clc1ccc(C(c2nnnn2C2CCCC2)N2CCN(Cc3ccncc3)CC2)cc1 (configuration not stated)
→ >57, -28%
Cc1nc(C)c(C(=O)Nc2nc3c(C)cccc3s2)o1
→ >57, -15%
O=C(Cc1ncn[nH]1)NCCc1ccccc1
→ >57, -1%
NC(=O)c1cc(Br)cc2c3c([nH]c12)CCCC3
→ >57, -21%
COc1ccc2[nH]c(=O)c(CNC3CCCCC3)cc2c1
→ >57, nt
CCCCn1c(O)c(C=NC2CCCCC2N)c(=O)[nH]c1=O (configuration not stated)
→ >57, nt
CCCSC1=C(C#N)C(c2ccccc2C)C(C(=O)OC)C(=O)N1 (configuration not stated)
→ >57, 7%
N#CCc1ccc(NS(=O)(=O)c2ccc(N3CCCC3=O)cc2)cc1
→ >57, -5%
O=C(O)c1cccc2[nH]c(C(F)(F)F)nc12
→ >57, 3%
COC(=O)CN1C(=O)C2(OCCCO2)c2ccccc21
→ >57, 7%
CCS(=O)(=O)N1CCC(NC(=O)c2ccco2)CC1
→ >57, -9%
Cc1ncc[nH]1
→ nt, 2%
Nc1ccc([N+](=O)[O-])cc1O
→ nt, -9%
Oc1c(CN2CCN(c3ccccc3)CC2)cc(Br)c2cccnc12
→ >57, 22%[8 µM]
Cc1ccc(-c2cc(C(=O)Nc3c(C)n(C)n(-c4ccccc4)c3=O)[nH]n2)c(O)c1
→ >57, -45%
CC(C)N1C(=O)CCC1C(=O)N1CCN(c2ccccn2)CC1 (configuration not stated)
→ >57, -6%
CCOC(=O)C1=C(N)OC2=C(C(=O)CCC2)C1c1ccco1 (configuration not stated)
→ >57, 17%
CSC(=NS(=O)(=O)c1ccc(C)cc1)SC
→ nt, 16%
O=C(O)c1ncc(-c2ccccc2)cn1
→ nt, -4%
Cn1c(SCC(=O)NC2CCCCCC2)nnc1-c1cccs1
→ >57, -20%
Nc1nc(-c2ccccc2)nn1C(=O)Cc1ccccc1
→ >57, -12%
CC(=O)c1cc2cc(O)ccc2o1
→ >57, ?
O=S(=O)(NC1CCCCCC1)c1cccc2cccnc12
→ >57, -18%
O=C(Cc1c(C(=O)O)[nH]c2ccccc12)NCCN1CCN(c2cccc(Cl)c2)CC1
→ >57, -4%
COc1ccc2c(c1)c(C(=O)CN1CCN(C)CC1)c(C)n2Cc1ccccc1
→ >57, -18%
CCOc1ccc(S(=O)(=O)N(CC(=O)O)c2ccc(C)cc2)cc1
→ >57, 9%
CC(C)c1ccc(-c2nnn(CCC(=O)O)n2)cc1
→ >57, ?
O=C(O)c1cccc(N2CCCC2)c1
→ >57, -14%

# 5 successive compounds from above:
# Order of results: SmPrx2 inh, LT uptake inh
Cn1c(SCC(=O)NC2CCCCCC2)nnc1-c1cccs1
→ >57, -20%
Nc1nc(-c2ccccc2)nn1C(=O)Cc1ccccc1
→ >57, -12%
CC(=O)c1cc2cc(O)ccc2o1
→ >57, ?
O=S(=O)(NC1CCCCCC1)c1cccc2cccnc12
→ >57, -18%
O=C(Cc1c(C(=O)O)[nH]c2ccccc12)NCCN1CCN(c2cccc(Cl)c2)CC1
→ >57, -4%

# Continued.
# Order of results: SmPrx2 inh, LT uptake inh
COc1ccc(-n2c(CNC(=O)c3ccc(S(=O)(=O)N4CCCC4)cc3)n[nH]c2=S)cc1
→ >57, 19%
Cc1c(C(=O)NC2CCCCC2)oc2c1C(=O)CC(C)(C)C2
→ >57, ?
COc1ccc(-n2c(=O)c(C)nc3cnc(Nc4ccccc4)nc32)cc1
→ >11, -20%
COc1cccc(C(=O)NCc2ccccc2OC)c1
→ nt, -12%
CC1(C)OC(C(N)=O)C(C(N)=O)O1 (configuration not stated)
→ >57, -21%
CCOc1ccc(C2CC(c3cccc(OC)c3)Nc3nc(N)nn32)cc1 (configuration not stated)
→ >57, -5%
O=c1cc(C(F)(F)F)c2sc(N3CCCCC3)nc2[nH]1
→ >57, 13%
COc1ccc(CN(C(=O)c2snc(C(N)=O)c2N)C(C(=O)NC(C)(C)C)c2ccco2)cc1 (configuration not stated)
→ >57, 3%
O=C(Nc1cccnc1)Nc1ccc(Br)cc1Cl
→ >57, -10%
CC1C(c2ccccc2)=[N+]([O-])C2(CCCC2)N1O (configuration not stated)
→ >57, 1%
COC(=O)c1ccccc1NC(=O)Nc1nnc(N2CCCCC2C)s1 (configuration not stated)
→ >57, 1.3µM*
CC1CCCCN1Cc1nc2c(c(=O)n(C)c(=O)n2C)n1CCCc1ccccc1 (configuration not stated)
→ >57, -10%
CCOC(=O)c1cc(-c2ccccc2)n(CC(=O)N2CCCC2)c1C
→ >57, 8%
Cc1ccc2c(c1)C1CN(C)CCC1N2C(=O)c1ccco1 (configuration not stated)
→ >57, -7%
c1cncc(-c2nn3c(-c4ccncc4)nnc3s2)c1
→ >57, nt
COc1ccc(-c2nc(CS(=O)CC(=O)NCc3cccnc3)c(C)o2)cc1 (configuration not stated)
→ >57, 0%
CCN(Cc1ccccc1)C(=O)Cn1cc2c(n1)CCCC2
→ >57, 28%
Cc1ccc(SCCC(=O)NCc2ccco2)cc1
→ >57, -9%
O=C(O)CSCCCC(=O)Nc1ccc(Br)cc1
→ >57, 7%
CCN(CC)CCCN1C(=O)c2oc3ccccc3c(=O)c2C1c1cc(OC)ccc1OC (configuration not stated)
→ >57, -15%
CCCSc1ncnc2c1oc1ccccc12
→ >57, -1%
O=C(NCCCN1CCCCCC1)c1ccc(N2CCCC2=O)cc1
→ >57, -3%
CC(=O)c1cccc(NC(=O)C2CCCN(S(=O)(=O)c3cccc4cccnc34)C2)c1 (configuration not stated)
→ >57, ?
CCOC(=O)CN(Cc1ccccc1)S(=O)(=O)c1ccc(NC(C)=O)cc1
→ >57, 5%
Cc1cc(C)nc(N2CCC(C(=O)Nc3cccc(C(F)(F)F)c3)CC2)n1
→ >57, ?
COc1ncc2nc(-c3ccccc3)c(=O)n(-c3ccccc3)c2n1
→ >11, ?
COc1cccc(C(C(=O)NC2CCCC2)N(C(=O)c2ccco2)C2CC2)c1OC (configuration not stated)
→ >57, -21%
CCn1c(=O)n(CC(=O)Nc2cc(OC)ccc2OC)c(=O)c2ccccc21
→ >57, 10%
COc1ccc(N2CCN(C(=O)c3ccc(NS(=O)(=O)c4ccc(F)c(F)c4)cc3)CC2)cc1
→ >57, 16%
COc1ccc(NC(C)=O)cc1NC(=O)CN1CCN(CC(=O)Nc2ccccc2Cl)CC1
→ >57, -7%

# Part of the list above in order of length of the SMILES, descending.
# Order of results: SmPrx2 inh, LT uptake inh
COc1ccc(N2CCN(C(=O)c3ccc(NS(=O)(=O)c4ccc(F)c(F)c4)cc3)CC2)cc1
→ >57, 16%
CC(=O)c1cccc(NC(=O)C2CCCN(S(=O)(=O)c3cccc4cccnc34)C2)c1 (configuration not stated)
→ >57, ?
CCn1c(=O)n(CC(=O)Nc2cc(OC)ccc2OC)c(=O)c2ccccc21
→ >57, 10%

# Next section.
# Order of results: SmPrx2 inh, LT uptake inh
Cc1ccc(N(C)C(=O)N2CCN(S(=O)(=O)c3ccc(C)cc3)CC2)cc1
→ >57, -12%
CC(C)CN(CCCNC(=O)CC1Oc2ccccc2NC1=O)CC(C)C (configuration not stated)
→ >57, -3%
C=CC[C@@H]1C=C[C@H](O/N=C(\C)CCN2CCCCc3nc(C)c(C)cc32)[C@H](CO)O1
→ nt, -5%[8 µM]
NC(=O)c1cccn1Cc1ccccc1Cl
→ >57, -5%
Cn1nnc2c(N3CCCCC3)nccc21
→ >57, -9%
O=C(NC12CC3CC(CC(C3)C1)C2)N1CC2Cc3cccc(=O)n3C(C2)C1 (configuration not stated)
→ >57, -18%
CC(C)NC(=O)c1c(O)c2ccccc2[nH]c1=O
→ >57, 2%
Cc1nc2ccc(NC(=O)Cn3cnc4c3c(=O)n(C)c(=O)n4C)cc2s1
→ >57, -5%
Cc1cc(C)c2nc(C(F)(F)F)nc(N3CC(C)OC(C)C3)c2c1 (configuration not stated)
→ >57, -1%
O=C(O)CCCCCC[C@@H]1C(=O)NC(=O)N1CC[C@@H](O)C1CCCCC1
→ >57, 3%
O=C(Nc1ccccc1N1CCN(c2ccc(F)cc2)CC1)c1ccccc1
→ >57, -3%
O=c1cc(O)nc(SC23CC4CC(CC(C4)C2)C3)[nH]1
→ >57, -11%
CCN(CC)Cc1c[nH]c2c(C(=O)OC)cccc12
→ >57, -2%
O=C(O)c1cccnc1-c1ncccc1C(=O)O
→ >57, 8%
NC(=O)C1CC(O)CN1c1nc(CN2CCOCC2)nc2scc(-c3ccccc3)c12 (configuration not stated)
→ >57, -2%
COc1cc(C(=O)Nc2ccc(OCC(=O)O)cc2)cc(OC)c1OC
→ nt, 0%
Cc1ccc(CNC(=O)[C@H](C)[C@@H]2C[C@@]2(C)[C@@H](NC(=O)OCc2ccccc2)c2ccccc2)c(F)c1F
→ >57, -6%
Cc1cc(NC(=O)COc2ccc(N(C)S(=O)(=O)c3ccccc3)cc2)no1
→ >57, 18%
O=C(NC1CCCCC1)C(c1ccccc1)N1CCOCC1 (configuration not stated)
→ >57, 2%
CC(C)C[C@@H](CC(=O)N[C@H](CC(=O)N[C@@H]1CCNC[C@H]1C(=O)N[C@H](CC(=O)N[C@@H](CCC(=O)O)CC(=O)O)Cc1c[nH]c2ccccc12)C(C)C)NC(=O)[C@@H]1CNCC[C@H]1N
→ >57, -7%
COc1ccc(NC(=O)c2cc(C(C)C)on2)c(OC)c1
→ >57, -15%
CN1C(=O)CC(N2CCC(C(N)=O)(N3CCCCC3)CC2)C1=O (configuration not stated)
→ >57, -6%
Cc1ccc(Cn2ccc(NC(=O)c3cc(C(C)C)on3)n2)cc1
→ >57, -24%
Cc1ccccc1-c1nnc(SCC(=O)Nc2cccc(C)c2C)o1
→ >57, -1%
Cc1cc(C(F)(F)F)nc(SCC(=O)NC2CC3CCC2C3)n1 (configuration not stated)
→ >57, -26%
Cc1cc(C)c(NC(=O)Cn2cc3c(n2)CCCC3)c(C)c1
→ >57, -10%
Cc1cc(C)cc(N(CC(=O)Nc2c(C)n(C)n(-c3ccccc3)c2=O)S(C)(=O)=O)c1
→ nt, ?
CCC1Oc2ccc(C)cc2N(CC(=O)NCc2ccccc2OC)C1=O (configuration not stated)
→ >57, -11%
COc1cccc(-c2nc(C(N)=O)c3[nH]c(=O)n(-c4cccc(Cl)c4)c3n2)c1OC
→ >57, ?
Cc1ccc(C)c(/C(O)=C2\C(=O)C(=O)N(CCCn3ccnc3)C2c2ccncc2)c1 (configuration not stated)
→ >57, -4%
CCCCNC(=O)CC1Nc2ccccc2NC1=O (configuration not stated)
→ >57, 12%
CCCOc1ccc(S(=O)(=O)NCCN2CCOCC2)c2ccccc12
→ >57, 4%
O=C(Nc1ccccc1Cl)c1c(F)c(F)c(F)c(F)c1F
→ >57, nt
O=c1c2ccccc2nc2c3ccccc3ncn12
→ >57, 7%
O=C(NCCN1CCOCC1)C1CCN(S(=O)(=O)N2CCCCC2)CC1
→ >57, 11%
C(=C/c1ccccc1)/CN1CCN(C(c2ccccc2)c2ccccc2)CC1
→ >57&>57, 17%[3.58 µM]
CS(=O)(=O)c1ccc(CNC(=O)[C@H]2C[C@@H]2[C@H](NP(=O)(c2ccccc2)c2ccccc2)c2ccccc2)cc1
→ >57, 1%

# Not all compounds are listed (hit frequency here may not be typical).
